VACV mCherry inh = vaccinia inhibition (mCherry reporter); 310,000 compounds, 0.63% hits; Vaccinia virus mCherry reporter infection, fluorescence; about a quarter of the inactives have no number; Potency, µM (series often up to 36.5 µM), inactives show top-dose activity change, negative = inhibition, usual class: inhibitors; active = well fitted inhibition curve with a large enough effect; inconclusive = small, poorly fitted or top-dose-only effect; inactive = no such curve, though single readings can be large or run the other way; tested in A549 cells; further: nearly all actives have a fitted effect of over 35% in size; inactives centre near -10
VACV Venus inh = inhibitors of vaccinia virus (Venus reporter) | 330,000 compounds, 0.46% hits | Potency, µM (highest dose often 36.5 µM), inactives show at the top dose activity change, negative = inhibition, most hits filed as inhibitors | Vaccinia virus Venus reporter expression, fluorescence; active means well fitted inhibition curve with a large enough effect; inconclusive means small, poorly fitted or top-dose-only effect; inactive means no such curve, though single readings can be large or run the other way; tested in A549 cells; further: nearly all actives have a fitted effect of over 30% in size; inactives centre near -10
* marks the source's active call; other numbers are inactive results; i = inactive; ? = inconclusive; / = not tested or not shown; [ ] = another dose, or the depositor's remark. On the % scale 0 is the no-effect control and ±100 the full control effect; potency means the concentration at half of the fitted maximal effect.

Start of the listing, in advance, two compounds:
SMILES	VACV mCherry inh	VACV Venus inh
Cc1cccc(-c2nc3c4ccccc4nc(N4CCN(c5ccc(F)cc5)CC4)n3n2)c1	-12%	-8%
CC(=C1C2C=CC1C1C(=O)NC(=O)C21)c1ccccc1 (stereo not given)	-1%	-16%

Main list, from the first entry:
SMILES	VACV mCherry inh	VACV Venus inh
Cc1cccc(-c2nc3c4ccccc4nc(N4CCN(c5ccc(F)cc5)CC4)n3n2)c1	-12%	-8%
CC(=C1C2C=CC1C1C(=O)NC(=O)C21)c1ccccc1 (stereo not given)	-1%	-16%
CC(C)CN(C(=O)CSc1nnc(-c2ccco2)o1)c1c(N)n(Cc2ccccc2)c(=O)[nH]c1=O	-4%	3%
CC(Cc1cnccn1)NCc1c(C(=O)N2CCCCCCC2)nc2ccc(Cl)cn12 (stereo not given)	i	-13%
CCCCn1c(N)c(N(CC(C)C)C(=O)CSC(C)C(=O)Nc2cc(C)on2)c(=O)[nH]c1=O (stereo not given)	-13%	-10%
Cc1c(CC(=O)O)c(=O)oc2cc(OCc3ccc(Br)cc3)ccc12	-4%	-3%
O=C(CCc1nc2cccnc2n1-c1ccccc1)Nc1ccc(Cl)c(Cl)c1	-12%	-22%
CCOC(=O)c1noc2nc(C)n(CC(=O)Nc3cc(Cl)ccc3OC)c(=O)c12	-10%	-9%[7.34 µM]
O=C(NCCC1=CCCCC1)C1CC(=O)N(C2CCCCCC2)C1 (stereo not given)	-4%	-16%
CC(=O)NC1=NN(C(C)=O)C2(CCCC2)S1	-6%	-2%
CCn1cc(C(=O)N2CCN(c3cc(Cl)ccc3C)CC2)c(=O)c2cc(S(=O)(=O)N3CCCC3)ccc21	?	-27%
CC(=O)c1cc2c(cc1NC(=O)CN1CCOCC1)OCO2	-27%	-11%
Cc1ccc(NS(=O)(=O)c2c(C)nc3sccn3c2=O)c(Cl)c1	?	-16%
CCCC(=O)Nc1cccc(-c2nc3ccccc3c(=O)o2)c1	i	-6%
Cc1ccc2c(c1)N(C(=O)N1CCC(C(=O)NCc3ccccc3F)CC1)CC(C)O2 (stereo not given)	-12%	-12%
COc1cccc(N2CCN(C(=S)NCCc3ccccc3)CC2)c1	i	-18%
CC(=O)c1ccccc1C(=O)NCc1cccnc1	-9%	-8%
NC(=O)CC(NC(=O)Cc1ccc(Br)cc1)c1ccc(NCCc2ccc(F)cc2)c([N+](=O)[O-])c1 (stereo not given)	-1%	-9%
Cc1ccc(S(=O)(=O)N2CCN(C(=O)CSc3nnc(C)c(=O)[nH]3)CC2)cc1	i	-3%
N#C/C(=C\c1ccc(OCc2ccc(Br)cc2)cc1)C(=O)Nc1cccc(C(=O)O)c1	1%	9%
CN1OC[C@@H]2CN(C(=S)Nc3ccc(C#N)cc3)[C@H](c3ccc(N4CCCCC4)cc3)C[C@@H]21	5%	0%
CCc1ccccc1NC(=O)C1COc2ccccc2C1 (stereo not given)	1%[7.34 µM]	-1%
CN(C)C(=O)N=NC(=O)N(C)C	-11%	-10%
Cc1cccc(N2CCN(C(=O)CN3C(=O)COc4ccc(S(=O)(=O)N5CCCC5)cc43)CC2)c1C	2%	11%
CNc1ccccc1C(C)(C)c1cc(-c2cccc(Br)c2)no1	i	89%[activator]
O=C(N[C@H]1C=C[C@H](CC(=O)N2CCCCC2)O[C@@H]1CO)c1cccc(F)c1	19%	3%
COc1ccccc1-n1cc(C(=O)c2cc(Cl)ccc2O)cc(C#N)c1=O	-1%	6%
O=C(Nc1ccc(N2CCOCC2)cc1)c1ccc2c(c1)OCO2	-16%	-13%
COc1ccccc1C(=O)NCC(=O)OCC(=O)N1CC(C)OC(C)C1 (stereo not given)	-10%	-4%
O=C(COC(=O)Cc1ccccc1)NCCNC(=O)COC(=O)Cc1ccccc1	i	-4%
COc1ccc(C)cc1S(=O)(=O)Nc1cc(Cl)ccc1Cl	/	-21%
CCC(=O)C1=C(c2ccc(Cl)cc2)N(C(=O)CC)n2c(C)nnc2S1	i[7.34 µM]	-13%[7.34 µM]
COC(=O)[C@]12CCCCC=C1N(Cc1ccc3c(c1)OCO3)C(=O)[C@H](CC(=O)NCCCCc1ccccc1)C2	?	?
O=C(NCc1csc2ccccc12)Nc1cc(Cl)cc(Cl)c1	-28%	-17%
CN(C)CCCNC(=O)c1cc(Br)ccc1O	i	-6%
COc1ccc(CN(C)Cc2nc3scc(-c4ccccc4)c3c(=O)[nH]2)cc1OC	-20%	-21%
CCOC(=O)C1=C(C)N(CCCCCC(=O)O)C(=O)NC1c1ccc(Cl)cc1 (stereo not given)	-11%	4%
COc1ccc(CNC(=O)COC(=O)c2ccc(S(=O)(=O)N3CCCCC3)cc2)cc1	i	-8%
Cc1ccc(-n2ncc3c(=O)n(CC(=O)NC4CCCCC4)cnc32)cc1	-18%	-13%
CCC1CCCCN1CCNC(=O)CNS(=O)(=O)c1ccc2nc(C)sc2c1 (stereo not given)	/	-9%
CC(=O)Nc1ccc(NC(=O)C(NS(=O)(=O)c2cccc3nsnc23)C(C)C)cc1 (stereo not given)	-1%	-14%
CCOC(=O)c1c(NC(=O)CN2C(=O)NC3(CCCCC3C)C2=O)sc(C)c1CC (stereo not given)	i	-26%
Cc1cccc(NC(=O)c2cc([N+](=O)[O-])ccc2NCC2CCCO2)n1 (stereo not given)	-20%	-9%
c1ccc(-n2nnnc2Oc2ccc(-n3ccnc3)cc2)cc1	?	-20%
COc1ccc(CNC(=O)[C@H](Cc2c[nH]c3ccccc23)NC(=O)[C@@H]2Cc3ccccc3CN2)cc1	10%	0%
CC(=O)Nc1cccc(NC(=S)Nc2cccc(Cl)c2C)c1	-5%	-18%
O=C(NCc1ccccn1)/C(=N/O)c1ccccc1	i	0%
Cc1cc(NC(=O)c2sccc2C)n(-c2cccc(Cl)c2)n1	i	-2%
CCC(C)N(C(=O)COc1ccc(-c2nnco2)cc1)C1CCS(=O)(=O)C1 (stereo not given)	-6%	-6%
Cc1cccc(CNc2nc(-c3cccnc3)nc3ccccc23)c1	-25%	-17%

(list continues)
SMILES	VACV mCherry inh	VACV Venus inh
Cc1ccc(-c2nc3cc(Cl)ccc3o2)cc1	-12%	-13%
COc1ccc([C@H]2CC(=O)C=C(c3ccc4ncccc4c3)C2)cc1OC	-12%	-23%
COc1cc(/C=N/O)ccc1Oc1cnccn1	-9%	-13%
COc1cccc([C@@H]2Oc3ccc(Br)cc3C(=O)[C@H]2OC(=O)NC2CCCC2)c1	?	-10%
CCOC(=O)c1ccc(-c2ccc3oc(-c4ccsc4)cc(=O)c3c2)cc1F	7%	-6%
Cc1cc(C=O)c(C)n1-c1ccc(Oc2ccc([N+](=O)[O-])cn2)cc1	-13%	-17%
CN(C)CC/C=C1/c2ccccc2CS(=O)(=O)c2ccccc21	-6%	-1%
S=C(NCc1ccccn1)Nc1ccccc1	i	-7%
Cn1cccc1CC(=O)N/N=C/C(Cl)=C/c1ccccc1	-11%	-5%
O=C(NCc1ccccc1)c1ccc2nccnc2c1	-18%	-5%
COc1cccc(NC(=S)N2CCN(c3ccccn3)CC2)c1	-19%	-11%
COC(=O)/C(C#N)=C/c1ccc(C)o1	-1%	-7%
FC(F)(F)c1cnc(C(c2ccccc2)c2ncn[nH]2)c(Cl)c1 (stereo not given)	i	-10%
COc1ccc(NS(=O)(=O)c2cccc(C(=O)NCC3(N4CCCCC4)CCCCC3)c2)cc1	i	-15%
Cc1ccc(C)c(N2C(=N)S/C(=C\c3ccc(-c4ccccc4C(=O)O)o3)C2=O)c1	i	-12%
Cc1ccc(S(=O)(=O)N2CCN(C3CC4CCC3C4)CC2)cc1 (stereo not given)	-12%	8%
COc1ccc(-c2oc3ccc(-c4cc(OC)c(OC)c(OC)c4)cc3c2-c2ccc(OC)nc2)cc1	-13%	-5%
COc1cc(OC)c(C(=O)OCC(=O)N2CCOCC2)cc1OC	i	-8%
Cc1ccc(CNC(=O)[C@H](Cc2ccccc2)NC(=O)C2CCNCC2)cc1	-1%	-13%
O=C(NC1CC1)c1ccc(NC(=O)C2CCCC2)cc1	11%	-5%
CSCC[C@H](NC(=O)NCc1cccs1)C(=O)O	/	-7%
O=C(NCc1ccco1)c1cc(NS(=O)(=O)c2cccc([N+](=O)[O-])c2)ccc1O	-17%	-7%
CC(C)(C)c1ccc(C(=O)O/N=C(\N)c2ccccn2)cc1	i	-13%
O=C1CC(c2ccc(Cl)cc2)n2nc(N3C(=O)CCC3=O)nc2N1 (stereo not given)	i	-17%
COc1ccc(CNc2nc3ccccc3s2)cc1OC	i	-1%
CCOC(=O)c1c(C)[nH]c(C)c1S(=O)(=O)N1CCC(C(=O)Nc2cc(Cl)ccc2OC)CC1	-18%	-16%
CCN(CC)S(=O)(=O)c1ccc(C(=O)NCc2ccc(C)cc2)cc1	-11%	-14%
O=C(Nc1ccc2c(c1)OCCO2)c1cc(-n2cnnc2)ccc1Cl	/	-5%
Nc1nc(N)c(N=O)c(OCC2CCCCC2)n1	0%	-17%
Cc1cccc(Nc2nc(N)c([N+](=O)[O-])c(N3CCN(C)CC3)n2)c1	?	?
CC(=O)Nc1cc2c(cc1NC(=O)Cn1nc(-c3ccc(F)cc3)ccc1=O)OCCO2	18%	8%
O=C(Nc1nc2ccc(S(=O)(=O)N3CCCC3)cc2s1)c1ccco1	-7%	-13%
O=C(OCC(=O)N1CCCC1=O)c1cc2ccccc2o1	i	-6%
COCCCNC(=O)CC1C[C@H](C(=O)N2CCCCC2)[C@@]2(C)c3[nH]c4ccc(OC)cc4c3CCN2C1=O (stereo not given in full)	i	-22%
CCOc1ccc(CCNC(=O)C2CCCN(c3ncnc4c3nc3n4CCCCC3)C2)cc1 (stereo not given)	-10%	-12%
COc1cccc(C2c3cc4c(cc3OC(C)(N3CCCC3)C2C)OCO4)c1O (stereo not given)	?	?
Cc1ccc2nc(-c3ccco3)c(Cc3cccc(F)c3)n2c1	13%	-1%
CC12CC(NC(=O)N1c1cccc(C(=O)N3CCCCC3)c1)c1ccccc1O2 (stereo not given)	-23%	-16%
C#Cc1ccc2c(c1)COc1c3ccccc3nn1-2	?	?
COc1ccc(C(=O)CC(=O)c2ccccc2O)cc1	-18%	-9%

Part of the list above, with values under each structure.
Every second line gives: VACV mCherry inh | VACV Venus inh
> CCOC(=O)c1c(C)[nH]c(C)c1S(=O)(=O)N1CCC(C(=O)Nc2cc(Cl)ccc2OC)CC1
  -18% | -16%
> CCN(CC)S(=O)(=O)c1ccc(C(=O)NCc2ccc(C)cc2)cc1
  -11% | -14%
> O=C(Nc1ccc2c(c1)OCCO2)c1cc(-n2cnnc2)ccc1Cl
  / | -5%
> Nc1nc(N)c(N=O)c(OCC2CCCCC2)n1
  0% | -17%
> Cc1cccc(Nc2nc(N)c([N+](=O)[O-])c(N3CCN(C)CC3)n2)c1
  ? | ?
> CC(=O)Nc1cc2c(cc1NC(=O)Cn1nc(-c3ccc(F)cc3)ccc1=O)OCCO2
  18% | 8%
> O=C(Nc1nc2ccc(S(=O)(=O)N3CCCC3)cc2s1)c1ccco1
  -7% | -13%
> O=C(OCC(=O)N1CCCC1=O)c1cc2ccccc2o1
  i | -6%
> COCCCNC(=O)CC1C[C@H](C(=O)N2CCCCC2)[C@@]2(C)c3[nH]c4ccc(OC)cc4c3CCN2C1=O (stereo not given in full)
  i | -22%
> CCOc1ccc(CCNC(=O)C2CCCN(c3ncnc4c3nc3n4CCCCC3)C2)cc1 (stereo not given)
  -10% | -12%
> COc1cccc(C2c3cc4c(cc3OC(C)(N3CCCC3)C2C)OCO4)c1O (stereo not given)
  ? | ?
> Cc1ccc2nc(-c3ccco3)c(Cc3cccc(F)c3)n2c1
  13% | -1%
> CC12CC(NC(=O)N1c1cccc(C(=O)N3CCCCC3)c1)c1ccccc1O2 (stereo not given)
  -23% | -16%
> C#Cc1ccc2c(c1)COc1c3ccccc3nn1-2
  ? | ?
> COc1ccc(C(=O)CC(=O)c2ccccc2O)cc1
  -18% | -9%

(further entries)
SMILES	VACV mCherry inh	VACV Venus inh
Cc1nn2c(C)c(C(=O)N3CCN(c4ccccc4F)CC3)cnc2c1-c1ccc(F)cc1	-13%	-11%
Cc1nn(CC(=O)NCCCN2CCCCC2C)c(=O)c2cccn12 (stereo not given)	-5%	-1%
O=C(O)c1cc([N+](=O)[O-])ccc1Nc1ccccc1	i	-12%
COCCC(=O)N1CCC(Oc2ccc(C(=O)NCCSC)cc2)CC1	-2%	2%
CC(=O)N1CCN(Cc2nc3scc(-c4ccccc4)c3c(=O)[nH]2)CC1	-3%	-4%
COc1ccc(N(C(=O)c2ccncc2)S(=O)(=O)c2ccc(Cl)cc2)cc1	-1%	-4%
CCc1ccc(C(=O)c2cn(CC(=O)Nc3cc(OC)ccc3OC)c3nc(C)ccc3c2=O)cc1	-25%	-25%
Cc1cc(C)cc(NC(=O)COc2coc(CN3CCc4ccccc43)cc2=O)c1	-22%	?
CCOc1ccccc1/C=N/NC(=O)CNC(=O)c1cccs1	-26%	4%
CN(C(=O)COC(=O)C(C)(C)Oc1ccc(Cl)cc1)c1c(N)n(Cc2ccccc2)c(=O)[nH]c1=O	-25%	-13%
Cc1cc(Br)ccc1OCC(=O)NNC(=O)C(=O)Nc1ccccc1	-10%	-2%
CCO[C@H]1OC(C(=O)Nc2ccccc2)=C[C@@H](c2ccc(C(F)(F)F)cc2)[C@@H]1CCCO	?	?
Cc1cc(C(=O)NN=Cc2ccc(OC(=O)c3ccco3)cc2)c(C)o1	i	-2%
O=C(O)CC1C(=O)NCCN1CCCc1ccccc1 (stereo not given)	i	-3%
O=c1c2sc3ccccc3c2n(Cc2cccc(C(F)(F)F)c2)c(=O)n1-c1ccccc1	3%	-8%

Screening results deposited in PubChem by National Center for Advancing Translational Sciences (NCATS).
